From PubChem BioAssay
NPYLR7 ag – mosquito NPYLR7 agonism | HEK293T NPYLR7/Galpha15, GCaMP6s calcium fluorescence | activation, % at 10 µM | 270,000 tested, 0.15% active | AID 1259423; in the data active = activation above about 40%;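 note: 0% = vehicle and 100% = reference agonist at the receptor; some compounds past the cut are filed as inactive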
NPYLR7 ag max-min – further read-out of NPYLR7 ag, marked with its call; activation, %; measured here: Max-Min RFU normalised activation; some inactives read as strong as hits;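 span of the calcium signal over five minutes; 0% = vehicle and 100% = native peptide agonist; compound fluorescence can raise it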
* marks the source's active call; other numbers are inactive results. Some of the compounds tested, so the mix of outcomes need not match the whole.

Values in the order – NPYLR7 ag max-min | NPYLR7 ag
#1 Cc1ccc2[nH]c(C)c(CC(=O)N/N=C\c3ccc[nH]3)c2c1
  -19.7 | -13.6
#2 COc1cc(C(=O)NC2CCN(Cc3ccccc3)CC2)ccc1Oc1nc(Cc2ccc(F)cc2)ns1
  9.6 | -0.3
#3 c1cc2cc(CNc3nc(NCC4CC4)nc4ccsc34)ccc2o1
  6.3 | 9.5
#4 COc1cc(C(N)=O)cc(I)c1OCc1ccccc1
  -8.1 | -6.6
#5 O=C(Nc1ccc(Nc2cc(-n3ccnc3)ncn2)cc1)Nc1ccc2c(c1)OCO2
  4.3 | 5.2
#6 CC(Oc1ccc(C#N)cc1)C(=O)NS(=O)(=O)c1ccc(Cl)cc1F (stereo not given)
  0.0 | 4.6
#7 O=C(NCCCNC(=O)[C@H]1CCCN1C(=O)c1cc(C(F)(F)F)cc(C(F)(F)F)c1)c1ccc(F)cc1
  8.4 | 0.9
#8 Cc1ccc(F)c(S(=O)(=O)NC(=O)C2(C)CCN2C(=O)c2ccc(C(F)(F)F)nc2C)c1 (stereo not given)
  2.2 | 0.4
#9 CCNC(=O)N(C)c1c(CC)nc2ccc(C(=O)N3CCN(C)CC3)cn12
  -7.7 | -3.9
#10 Cc1ccc(Cn2c(N3CCN(Cc4cccc5ccccc45)CC3)nc3c2c(=O)[nH]c(=O)n3C)cc1
  -0.7 | -7.6

Part of the list above, reformatted:
[2] COc1cc(C(=O)NC2CCN(Cc3ccccc3)CC2)ccc1Oc1nc(Cc2ccc(F)cc2)ns1
[3] c1cc2cc(CNc3nc(NCC4CC4)nc4ccsc34)ccc2o1
[5] O=C(Nc1ccc(Nc2cc(-n3ccnc3)ncn2)cc1)Nc1ccc2c(c1)OCO2
[7] O=C(NCCCNC(=O)[C@H]1CCCN1C(=O)c1cc(C(F)(F)F)cc(C(F)(F)F)c1)c1ccc(F)cc1
Assay by compound | 2 | 3 | 5 | 7
NPYLR7 ag max-min | 9.6 | 6.3 | 4.3 | 8.4
NPYLR7 ag | -0.3 | 9.5 | 5.2 | 0.9

The list goes on:
Values in the order – NPYLR7 ag max-min | NPYLR7 ag
#11 CCCC(=O)Nc1cccc(C(=O)NCCc2cn3nc(C)sc3n2)c1
  5.8 | 17.8
#12 Cc1nn(C2CCS(=O)(=O)C2)c2nc(-c3ccc(F)cc3)cc(C(=O)N3CCC(C(N)=O)CC3)c12 (stereo not given)
  7.7 | 2.8
#13 CN(Cc1nccs1)C(=O)C1CCC(=O)N(CCCc2ccccc2)C1 (stereo not given)
  6.9 | 5.6
#14 CC(=O)Nc1ccc(Cl)c(C(=O)NCCc2c[nH]c3ccccc23)c1
  -5.2 | 10.1
#15 CCCc1cc(=O)n(CC(=O)Nc2ccc(Cl)c(Cl)c2)cn1
  4.1 | 13.0
#16 OCC1(Cc2cccc(Cl)c2)CCCN(Cc2cccc3cnccc23)C1 (stereo not given)
  -2.6 | 2.4
#17 CN1[C@H](C(=O)O)C[C@H](C(=O)N2CCOCC2)[C@@H]1c1ccccc1F
  0.0 | 0.9
#18 COCC(=O)Nc1ccc(-c2cc(Cl)ccc2OC)cc1
  -7.1 | -4.1
#19 CCCCCOc1ccc(/C=c2/sc3ncnn3c2=O)cc1OCC
  12.7 | 9.6
#20 NC(=O)C1CCCN1S(=O)(=O)c1cc(Cl)cc(Cl)c1 (stereo not given)
  10.5 | -3.7

Next results
Values in the order – NPYLR7 ag max-min | NPYLR7 ag
#21 Cc1c(C)c(C)c(S(=O)(=O)NCCCN2CCCCCC2=O)c(C)c1C
  3.8 | 6.5
#22 c1ccc(Nc2nc(N3CCCC3)nc3nccnc23)cc1
  5.3 | 8.9
#23 COC(c1ccc2c(c1)CN(C(=O)C1Cc3ccccc3O1)CCO2)C1CCCCC1 (stereo not given)
  0.5 | 18.5
#24 COc1ccc2c(c1OC)C(=O)OC2Nc1ccc2c(c1)nc(Cn1cccn1)n2CC(C)C (stereo not given)
  34.6 | 2.3
#25 CCCC(C)CS(=O)(=O)NCc1cccnc1OC (stereo not given)
  4.2 | 5.8
#26 COc1ccc(CCN(Cc2ccc(C)o2)C(=O)CN(CCN2CCCC2)C(=O)Nc2ccc(C)cc2)cc1OC
  -2.1 | -1.6
#27 COCCN(CC(=O)N(CCc1c[nH]c2ccccc12)Cc1ccccc1)C(=O)c1cc(OC)cc(OC)c1
  -1.6 | -3.7
#28 CCc1cc(N2CCOCC2)nc(SCc2ccc(C(=O)NCCc3ccccn3)o2)n1
  8.3 | 5.2
#29 O=C(CCC1CCN(Cc2cc3ccccc3o2)CC1)N1CCN(c2ccccc2)CC1
  3.1 | 9.9
#30 CCCCCCCC(=O)Nc1c(-c2cccc(F)c2)nc2cc(C)ccn12
  0.5 | -6.0

Other entries
Values in the order – NPYLR7 ag max-min | NPYLR7 ag
#31 COc1ccc2oc(=O)n(C3CCN(C(=O)COC(C)=O)CC3)c2c1
  5.7 | -5.4
#32 CC(=O)Nc1ccc(S(=O)(=O)Oc2ccc(Cl)cc2CN(Cc2ccco2)C(=O)c2ccccc2Cl)cc1
  12.8 | 16.9
#33 COc1ccc2nc(-n3nc(C)cc3NC(=O)c3ccccc3S(C)(=O)=O)sc2c1
  -13.2 | -8.2
#34 CCCCn1cc(S(=O)(=O)c2ccccc2)c(=O)c2cc(F)ccc21
  -14.8 | -9.8
#35 Cc1cc(C)cc(C(=O)NCC(=O)OCC(=O)Nc2cc(F)ccc2F)c1
  -0.9 | 0.8
#36 Cc1cc(C(=O)N2CCC2(C)C(=O)N2CCCCC2)nn1C (stereo not given)
  12.3 | 4.9
#37 COc1ccc(NC(=O)Cn2cc(OC)c(=O)cc2CSc2nccc(C)n2)cc1
  -5.7 | -3.8
#38 Cc1c(C(=O)NCCCN2CCCCC2C)cc(-c2ccc(Cl)cc2)n1-c1ccc(F)cc1 (stereo not given)
  24.6 | 13.6
#39 CCNc1nc(N)nc(ON=C(C)C)n1
  -1.8 | 0.1
#40 CCOc1ccccc1CN1C(=O)C(O)(CC(C)=O)c2ccccc21 (stereo not given)
  -1.7 | 7.0

Next section (two carried over from the part before).
Values in the order – NPYLR7 ag max-min | NPYLR7 ag
#39 CCNc1nc(N)nc(ON=C(C)C)n1
  -1.8 | 0.1
#40 CCOc1ccccc1CN1C(=O)C(O)(CC(C)=O)c2ccccc21 (stereo not given)
  -1.7 | 7.0
#41 CN1CCC2(CC1)CN(C(=O)COCC1CCCCO1)CCN2C (stereo not given)
  4.4 | 8.2
#42 CCn1nnc2c(NCCCOC)ncnc21
  7.0 | 9.0
#43 Cc1ccc(-c2nc(C=Nc3ccccn3)c(O)o2)cc1
  -12.8 | -4.9
#44 COc1cc(-c2ccc3nnc(-c4ccc(OCCCN(C)C)cc4)n3c2)ccc1O
  -5.9 | 0.8
#45 CCCN(CC(=O)N(CCc1c[nH]c2ccccc12)Cc1ccc(F)cc1)C(=O)c1cccc(C(F)(F)F)c1
  23.3 | 22.3
#46 COCCN(Cc1ccc(C)cc1)Cc1cnc2nccn2c1
  8.4 | 20.0
#47 C=CCOCC(O)CN(Cc1ccc(OC)c(OC)c1)C1CC1 (stereo not given)
  18.4 | 17.4
#48 CN1C(=O)NC(c2ccc(C(C)(C)C)cc2)C2=C1CN(CC(=O)NCc1ccccn1)C2=O (stereo not given)
  13.1 | 1.3
#49 Cn1c(=O)[nH]c(=O)c2c1nc(N1CCN(Cc3ccc(F)cc3)CC1)n2Cc1ccc(Cl)cc1
  15.7 | 17.6
#50 Cn1c(SCc2ccccc2)nnc1C1CCS(=O)(=O)C1 (stereo not given)
  0.4 | 1.2

Overlap with the part before: four compounds, followed by the next part.
Values in the order – NPYLR7 ag max-min | NPYLR7 ag
#47 C=CCOCC(O)CN(Cc1ccc(OC)c(OC)c1)C1CC1 (stereo not given)
  18.4 | 17.4
#48 CN1C(=O)NC(c2ccc(C(C)(C)C)cc2)C2=C1CN(CC(=O)NCc1ccccn1)C2=O (stereo not given)
  13.1 | 1.3
#49 Cn1c(=O)[nH]c(=O)c2c1nc(N1CCN(Cc3ccc(F)cc3)CC1)n2Cc1ccc(Cl)cc1
  15.7 | 17.6
#50 Cn1c(SCc2ccccc2)nnc1C1CCS(=O)(=O)C1 (stereo not given)
  0.4 | 1.2
#51 COC(=O)c1ccc(C2Nc3cccc4cccc(c34)N2)cc1
  -12.9 | -5.1
#52 c1ccc(OCCCCSCc2nc3ccccc3[nH]2)cc1
  5.7 | 0.8
#53 COc1ccc(OCc2nn3c(C(F)(F)F)nnc3s2)cc1
  -3.7 | -0.9
#54 O=C(Cc1cccs1)N1CCC(c2nc(-c3ccc4c(c3)OCO4)no2)CC1
  -0.4 | -2.8
#55 O=C(CN1CCCCC1)N/N=C\c1ccc(OC2CSC2)cc1
  -14.5 | -10.6
#56 CCc1nc2ccc(C(=O)N(C)CCCN(C)C)cn2c1N(C)CCCc1ccccc1
  5.9 | 13.8
#57 COCCCNC(=O)c1c(C)noc1-c1ccncc1
  -1.1 | 5.1
#58 Cc1ccc(CN(C)CC(=O)N2CCN(C)C3(CCN(C)CC3)C2)cc1
  1.7 | 2.8
#59 COc1ccc(N2C(=O)CSC2c2ccncc2)cc1 (stereo not given)
  -8.5 | -3.9
#60 NC(=O)c1nnc2n1CCN(C(=O)CCc1ccccc1)C2
  3.5 | 10.4

The results go on:
Values in the order – NPYLR7 ag max-min | NPYLR7 ag
#61 O=C(CC1CCS(=O)(=O)C1)N(Cc1ccc(Cl)c(Cl)c1)C1CC1 (stereo not given)
  6.2 | 9.1
#62 COCCC(=O)Nc1cc(C(=O)N2CCCCC2c2cccnc2)cc2nc(-c3ccccc3)n(C)c12 (stereo not given)
  5.4 | 13.2
#63 CCCn1c(N)c(Sc2ccccc2)c(=O)n(CCC)c1=O
  1.5 | 3.4
#64 CCCCCC(=O)N1CC2(C)CN(C(=O)CCCCC)CC(C)(C1)C2=O
  2.2 | 5.6
#65 COCCCNc1nccc2[nH]c(-c3cccc(F)c3)nc12
  -13.0 | -5.5
#66 O=S(=O)(c1c(F)cccc1F)N1CCN(C(c2ccccc2)c2ccc(Cl)cc2)CC1 (stereo not given)
  17.5 | 28.4
#67 CC(=O)N1CCc2cc(S(=O)(=O)Nc3cccc(Cl)c3C)ccc21
  5.0 | 1.9
#68 O=C(NCCSCc1c(Cl)cccc1Cl)c1cncn1-c1cccc(-c2ccc(Oc3ccccc3)cc2)c1
  3.0 | 18.8
#69 CC(C)N(Cc1ccc(F)cc1)Cc1ccc(C(C)(C)O)o1
  13.7 | 4.0
#70 Cc1c(C)n2c3c(=O)n(CCN4CCCCC4)c(=O)n(C)c3nc2n1-c1ccc(Br)cc1
  -0.9 | 1.1

Additional entries follow.
Values in the order – NPYLR7 ag max-min | NPYLR7 ag
#71 O=C(NCc1ccco1)c1coc(CN(CCc2c[nH]c3ccccc23)Cc2cccc(Cl)c2Cl)n1
  14.8 | 17.8
#72 COCC(O)CN(Cc1cccc(F)c1)CC1CC(c2ccc(Cl)cc2)=NO1 (stereo not given)
  4.7 | -1.7
#73 CC(=O)N1CCN(C(=O)C2CCC(C(=O)N3CCN(C(C)=O)CC3)CC2)CC1 (stereo not given)
  -1.9 | 0.5
#74 CCOC(=O)Cn1c(=O)c2c(nc3n2CCCN3c2ccc(CC)cc2)n(C)c1=O
  9.5 | 6.1
#75 COc1cc2c(cc1OC)C(c1ccc(F)cc1)N(C(=O)c1cc(Cl)cc(Cl)c1)CC2 (stereo not given)
  7.1 | 8.6
#76 Cc1ncoc1C(=O)N1CCC(Oc2cccc(C(=O)NCc3ccccn3)c2)CC1
  -1.0 | 2.1
#77 CCN(CC)S(=O)(=O)c1ccc(C(=O)NCCSCc2cccs2)cc1
  18.0 | 1.0
#78 COc1ccc(OC)c(SCc2ccc(C(=O)N3C4CCC3CC(Oc3cc(C)ccc3Cl)C4)cc2)c1 (stereo not given)
  14.2 | 30.7
#79 Cc1csc(NC(=O)NC2CC(=O)N(c3ccc4c(c3)OCCO4)C2)n1 (stereo not given)
  -12.4 | -17.5
#80 COc1ccc(CCOC(=O)C2CCCCN2C(=O)C2CCCCCC2)cc1OC (stereo not given)
  -14.9 | -8.9

Going on with the list.
Values in the order – NPYLR7 ag max-min | NPYLR7 ag
#81 O=C(CCc1nnc2c3cc(-c4ccc(F)cc4)nn3ccn12)N1CCOCC1
  -6.7 | -5.0
#82 CCc1nc(CN(C)Cc2nnc(-c3ccccc3)o2)c(C)[nH]1
  -0.9 | 15.9
#83 COc1ccc(C(C)(C)C)cc1S(=O)(=O)N(C)C1CCCCC1
  6.2 | -0.3
#84 OCCn1ncc2c1CN(c1noc(-c3ccccc3)n1)C2
  -0.7 | 0.5
#85 CCCN(CCc1c[nH]c2ccc(NC(=O)c3cccc(Cl)c3Cl)cc12)CC1CC1
  6.0 | 1.7
#86 CC(C(=O)Nc1ccc(Cl)cc1)N1CCC(NS(=O)(=O)c2cccs2)CC1 (stereo not given)
  2.9 | 2.8
#87 CNC(=O)c1cccc(OCc2ccccc2F)c1
  -1.8 | -0.8
#88 CCOC(=O)c1c(NC(=O)C2CCN(S(=O)(=O)c3ccccc3F)CC2)sc2c1CCCC2
  1.5 | 2.3
#89 CCN(CC)c1ccc(CN(C(=O)c2ccccc2F)C2CC2)c(OS(=O)(=O)CC)c1
  8.3 | 1.6
#90 CC1CCN(C(=O)C2Cc3ccccc3O2)c2ccccc2S1 (stereo not given)
  5.8 | 10.6
#91 O=C(c1ccc(F)cc1)N1CCN(CC(O)c2ccccc2Cl)CC1 (stereo not given)
  17.3 | 20.2
#92 CCN=c1scc(-c2ccc(C)c(C)c2)n1N=Cc1cccnc1
  -10.1 | -1.5
